Screens deposited in PubChem BioAssay by several laboratories.
CSC inhib: blocks cancer stem cells. cancer stem cell-like cells viability, luminescence. inhibition, % at 7.5 µM. hit rate 1.1% among 300,000;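 active = mean at 75% or more and at least half the replicates too; inconclusive = mean and replicates disagree; tested in HMLE shEcad cells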;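 note: 0% = median of negative and 100% = median of positive control wells; the first replicate is given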
Env fusion inh: inhibitors of HIV Env-mediated cell fusion. HeLa-JRFL Env/CEM21 cell fusion, luciferase. inhibition, % at 12.3 µM. hit rate 1.1% among 360,000. AID 651610;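 active = mean replicate inhibition score of at least 50 and every replicate individually at or above 50; inconclusive = only one of the two criteria met; inactive = mean below 50 and not all replicates reaching 50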;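 note: 0% = plate neutral controls and 100% = maraviroc near 300 nM; one replicate is shown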
PABP polyA inh: PABP-poly(A) binding inhibition | P11940 | PABP-poly(A) RNA binding, fluorescence polarization | inhibition, % at 35 µM | hit rate 1% among 290,000;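 active = 50% or more with normal probe brightness, or confirmed in later tests; inconclusive = above 50% with abnormal brightness, or retests that disagree; inactive = below 50% or failed in later tests; about a fifth of its hits are not listed in these tables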;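 note: calls also rest on retests at 20 µM and on dose response follow-up; controls were probe without protein and protein plus probe with vehicle; some compounds called inactive have numbers as strong as hits; many hits fall short of the cut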
Target sequence (P11940 whole entry, looked up): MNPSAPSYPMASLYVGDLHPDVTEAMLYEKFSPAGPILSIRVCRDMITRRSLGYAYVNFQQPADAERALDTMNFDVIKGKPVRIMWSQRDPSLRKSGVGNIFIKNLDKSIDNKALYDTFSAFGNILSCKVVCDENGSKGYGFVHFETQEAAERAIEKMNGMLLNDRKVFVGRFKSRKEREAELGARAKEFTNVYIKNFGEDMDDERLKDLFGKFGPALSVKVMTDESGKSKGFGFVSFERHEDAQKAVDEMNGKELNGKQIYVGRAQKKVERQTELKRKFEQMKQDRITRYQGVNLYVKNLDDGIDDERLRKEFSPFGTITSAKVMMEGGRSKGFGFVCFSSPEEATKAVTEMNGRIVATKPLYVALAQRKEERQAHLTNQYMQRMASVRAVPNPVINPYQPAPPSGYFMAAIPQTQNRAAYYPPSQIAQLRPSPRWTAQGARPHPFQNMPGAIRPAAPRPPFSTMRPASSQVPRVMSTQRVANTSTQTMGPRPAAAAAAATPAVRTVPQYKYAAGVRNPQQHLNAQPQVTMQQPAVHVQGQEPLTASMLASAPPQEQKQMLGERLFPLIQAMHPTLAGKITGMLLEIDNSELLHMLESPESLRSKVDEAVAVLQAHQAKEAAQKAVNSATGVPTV
MT1-MMP act inh: inhibitors of human MT1-MMP activation. HT1080 RFP-PRO-GFP cells, GFP/RFP ratio fluorescence, overnight; percent of plate control window, DMSO zero. P50281. hit rate 0.061% among 360,000. GFP/RFP ratio change, % at 20 µM;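 active = GFP/RFP ratio change of at least 30% with cell ATP level not reduced by more than half and red fluorescence within 50% of control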; note: strong numbers were not always called active
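Material – HT1080 RFP-PRO-GFP cells · Control set – DMSO wells and RFP-L50D-GFP cells · Incubation – overnight cell settling, then overnight compound exposure, 37 °C, 5% CO2 · Compound dosing – single-point 20 µM compound, 1% DMSO · Read-out – GFP/RFP fluorescence ratio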
eIF4H FP inh: inhibitors of RNA binding by human eIF4H; Q15056; eIF4H fluorescence polarization binding assay; inhibition, % at 35 µM; hit rate 0.94% among 290,000; AID 2012;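 active = 50% or more with normal probe brightness, or confirmed in later tests; inconclusive = above 50% with abnormal brightness, or retests that disagree; inactive = below 50% or failed in later tests; about a fifth of its hits are not listed in these tables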;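 note: calls also rest on retests at 20 µM and on dose response follow-up; 0% = protein and probe with vehicle and 100% = probe without protein; strong numbers were not always called active; many hits fall short of the cut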
Rce1 inhib: inhibitors of yeast Ras-converting enzyme; hit rate 0.27% among 290,000; Q03530; yeast membranes, quenched prenylated peptide cleavage fluorescence; calls only; AID 2563;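 active = fall in fluorescence gain of 50% or more versus controls, with final raw signal at or below 3038400; inconclusive = same 50% fall but final raw signal above 3038400; inactive = fall in fluorescence gain under 50%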;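 note: plate controls were neutral control wells for no effect and wells lacking membranes for full effect; tested at 10 µM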
Target sequence (Q03530 whole entry, looked up): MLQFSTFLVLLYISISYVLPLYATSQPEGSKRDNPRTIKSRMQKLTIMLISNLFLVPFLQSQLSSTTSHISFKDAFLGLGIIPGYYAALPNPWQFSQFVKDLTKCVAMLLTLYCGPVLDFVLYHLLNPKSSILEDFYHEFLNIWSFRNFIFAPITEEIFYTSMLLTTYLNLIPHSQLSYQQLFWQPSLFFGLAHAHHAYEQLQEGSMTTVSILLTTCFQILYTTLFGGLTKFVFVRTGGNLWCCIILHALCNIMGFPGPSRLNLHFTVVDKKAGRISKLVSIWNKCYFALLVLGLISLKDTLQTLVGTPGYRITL
UUG fidelity: modulators of start codon recognition fidelity in yeast. hit rate 0.13% among 350,000. activity score, % at 18.7 µM. S. cerevisiae UUG-firefly luciferase reporter, luminescence/redox ratio;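 active = replicate mean at a twofold rise or more, about +100% in these data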;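 note: firefly luciferase made from a UUG start codon reports start codon fidelity; reporter light over untreated wells divided by growth signal over untreated wells; some hits fall short of that in this replicate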
MT1-MMP act inh RFP: further read-out of MT1-MMP act inh, marked with its call; RFP signal change, %; measured here: RFP expression control read;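 0 = vehicle wells; hits needed this value within 50% of zero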
* = called active by the depositor; i = inactive; ? = inconclusive; . = no result given. A portion of the library; rates above refer to the full screens.

SMILES | CSC inhib | Env fusion inh | PABP polyA inh | MT1-MMP act inh | MT1-MMP act inh RFP | eIF4H FP inh | Rce1 inhib | UUG fidelity
O=C(NCc1ccco1)C(=O)NCC1OCCN1C(=O)c1ccc(Cl)cc1 (configuration not stated) | -22.1 | 7.3 | 8.8 | -1.1 | -2.7 | -4.7 | . | .
O=C(O)c1nn(-c2ccccc2)c(-c2ccccc2)c1C(=O)c1ccccc1 | -16.2 | 6.4 | -12.2 | -2.8 | -0.5 | -6.1 | i | -11.0
Cc1ccc(S(=O)(=O)N2CC(O)CC2C(=O)Nc2ccc3c(c2)CCC3)cc1 (configuration not stated) | 0.6 | . | 1.7 | 5.9 | 3.2 | -1.3 | i | 7.7
Cc1cc(C)cc(N(CCC(=O)O)S(=O)(=O)c2ccc3ccccc3c2)c1 | 33.8 | 22.0 | 4.9 | 4.6 | 4.2 | -4.3 | i | .
C=CCOC(=O)CCCC(=O)NC1CCCCC1 | -7.5 | . | -5.9 | 2.4 | 3.8 | 1.6 | i | -12.2
S=C(Nc1ccc(Cl)cc1)NN1CCOCC1 | -1.8 | -12.6 | -6.4 | 2.0 | 5.8 | -4.0 | i | .
OC(CN1CCN(Cc2ccccc2)CC1)c1ccc(Br)cc1 (configuration not stated) | 23.6 | -9.6 | . | 2.4 | 0.8 | . | i | .
CCOC(=O)C(CCC(=O)O)(CCC(C)C)c1csc(N)n1 (configuration not stated) | -7.8 | -39.0 | 3.6 | -0.1 | -0.9 | 5.3 | i | -28.4
Cc1cc(Br)ccc1SCC(=O)OCC(=O)NC1CC1 | -2.0 | 21.6 | 3.8 | -1.8 | 4.4 | 5.5 | i | .
N=P(N1CCOCC1)(N1CCOCC1)C12CC3CC(CC(C3)C1)C2 | -5.6 | . | 5.5 | -7.1 | 0.0 | 3.4 | i | -12.6
CCOC(=O)c1cc(NC(=O)CC(C)(C)CC(=O)O)ccc1N1CCCCC1 | -2.6 | 6.8 | -6.5 | -0.7 | -0.4 | -7.7 | i | -1.9
Cc1ccccc1Nc1c(C)c(C)nc2ncnn12 | 4.7 | -165.2 | -7.7 | -0.8 | -12.8 | -2.9 | i | -0.3
Cc1cc(C)nc(/N=C2\NC(=O)CC(C(=O)O)N2c2cccc(Cl)c2)n1 (configuration not stated) | -2.0 | . | -0.3 | . | . | 1.1 | i | .
Cc1cccc(CN2CCN(C(=S)Nc3ccccc3)CC2)c1 | 3.6 | 6.1 | -4.3 | 2.4 | -0.9 | -4.9 | i | .
Cc1onc(-c2c(Cl)cccc2Cl)c1COC(=O)c1ccc([N+](=O)[O-])cc1 | -2.2 | -0.7 | -2.3 | -3.3 | 6.7 | -0.8 | i | 8.0
COCCn1c(N)c(N(Cc2ccccc2)C(=O)c2ccc(N3CCCC3=O)cc2)c(=O)[nH]c1=O | . | 3.4 | . | -0.6 | 3.0 | . | . | -30.9
CCn1c(SCC(=O)NCc2ccco2)nc2cccnc21 | . | . | 4.4 | 0.9 | 3.6 | 4.2 | i | -7.6
O=C(Nc1cccc(F)c1)Nc1cnccn1 | -7.6 | -8.1 | -5.6 | -3.6 | -0.7 | -8.4 | i | -18.4
CC(Sc1nc2c(c(=O)[nH]1)CCCC2)C(=O)Nc1ccc(Br)cn1 (configuration not stated) | -4.1 | 9.9 | 6.8 | 9.3 | 0.1 | -19.8 | . | 0.0
Cc1ccc(S(=O)(=O)Nc2ccc(C(=O)N3CCCC3)cc2)cc1 | -9.4 | -1.0 | 8.7 | -0.5 | -1.5 | -0.6 | i | -0.9
O=C(CSC1=NS(=O)(=O)c2ccccc21)Nc1ccccc1 | 5.4 | 15.8 | 15.2 | 5.2 | 7.4 | 3.1 | i | 26.7
CC(NC(=O)C(C)N1C(=O)c2cccc([N+](=O)[O-])c2C1=O)c1ccccc1 (configuration not stated) | -19.6 | 3.7 | 7.9 | -3.0 | -0.3 | -13.7 | . | -12.6
Cc1ccc(C2c3c(-c4ccccc4O)n[nH]c3C(=O)N2Cc2ccncc2)cc1 (configuration not stated) | 48.9 | -126.8 | -11.8 | -13.0 | -20.6 | -0.6 | i | -20.7
CC1CN(C(=O)CSc2nnc(-c3cccs3)n2N)CC(C)O1 (configuration not stated) | . | -4.7 | . | 1.7 | 2.6 | . | . | -8.4
Cc1ccc(C(=O)NC(NC(=O)c2ccc(C)cc2)c2cccc([N+](=O)[O-])c2)cc1 | 17.5 | -63.1 | -2.9 | 1.4 | -4.6 | -11.9 | i | .
CCOc1ccc(C2/C(=C(/O)c3ccc4c(c3)CC(C)O4)C(=O)C(=O)N2CCCn2ccnc2)cc1OCC (configuration not stated) | -9.4 | -1.9 | -8.5 | 0.5 | 3.1 | -10.7 | i | -15.7
CCOC(=O)N1CCN(C(=O)c2c(N)no[n+]2[O-])CC1 | -4.4 | . | -6.3 | -0.5 | 1.4 | -6.7 | i | .
Cc1nnc(SCC(=O)Nc2cccc([N+](=O)[O-])c2)n1CC1CCCO1 (configuration not stated) | -5.4 | -17.5 | 6.9 | -2.1 | 3.8 | -5.6 | i | -11.0
CC(Nc1ncnc2nc[nH]c12)c1ccccc1 (configuration not stated) | -9.3 | 7.3 | -19.8 | 0.5 | -13.4 | -0.4 | i | -9.7
CCNC(=O)C1CCCN(Cc2cc(-c3ccccc3)on2)CC1 (configuration not stated) | . | -15.2 | . | 1.3 | 1.6 | . | . | -15.8
CC1CC(=O)Nc2ccccc2N1S(=O)(=O)c1ccc(F)cc1F (configuration not stated) | 3.2 | -4.5 | 8.8 | -0.1 | -2.0 | -1.0 | i | -23.7
CN(C)c1nc(OCCOC(=O)c2ccccc2)nc(N(C)C)n1 | -11.7 | -8.2 | 6.1 | 4.7 | 5.2 | 1.0 | i | -12.8
O=C(Nc1ccccc1C(=O)N1CCCC1)c1ccc(Cl)cc1Cl | 1.6 | 11.1 | -1.8 | 3.9 | 10.5 | 0.6 | i | -10.6
COC(=O)c1ccc(N=NN2CCOCC2)cc1 | 3.4 | 13.2 | -2.3 | -0.3 | 0.7 | 1.5 | i | .
CC(C)n1cc(C(=O)c2cc(Br)ccc2O)cc(C#N)c1=O | -8.5 | -84.0 | -2.4 | -6.6 | -6.2 | -7.2 | i | 2.9
CCOc1ccc(N/C(N)=N/c2nc(CSc3nnc(C)s3)cc(=O)[nH]2)cc1 | ? | -312.7 | 8.7 | 18.4 | -1.4 | -4.0 | i | .
CCn1c(COc2ccc(=O)n(-c3ccccc3)n2)n[nH]c1=S | -6.2 | -1.3 | -0.5 | -0.9 | -0.4 | 7.9 | i | .
Cc1cc(C)cc(C(=O)NCC(=O)OCC(=O)N2CCCC2)c1 | . | -5.3 | . | -2.3 | -0.3 | . | . | -12.2
Cc1ccc(C(=O)N/C(=C\c2ccco2)C(=O)NCCN2CCCCC2)cc1C | . | -4.4 | -1.3 | 1.4 | 4.2 | -0.3 | i | -11.5
Cc1csc(=O)n1CCC(=O)OCc1nnc(-c2ccccc2Cl)o1 | -12.8 | 5.4 | . | -0.7 | 0.6 | . | . | -1.8
CCN(CCCNC(=O)C1CCC(=O)N1Cc1ccc(C)cc1)c1cccc(C)c1 (configuration not stated) | 9.9 | . | 0.3 | 7.5 | 4.3 | -1.1 | i | -0.6
O=C(NC1CCCc2ccccc21)c1cn2ccccc2n1 (configuration not stated) | . | 6.5 | -5.8 | 0.1 | 1.0 | 0.3 | i | .
Cc1nc(NCCc2ccccc2)c2oc3ccccc3c2n1 | -6.7 | -20.0 | 20.3 | -1.8 | -15.9 | -3.1 | i | -19.0
Cc1nn(C)c(=O)n1N(C)c1ncc(C(F)(F)F)cc1Cl | -12.5 | -12.8 | 0.1 | 1.5 | 3.0 | -4.4 | i | -7.4
O=C(NC1CC2CCC(C1)N2Cc1ccccc1)c1ccccc1Br (configuration not stated) | -10.0 | -9.0 | 0.8 | 0.2 | 2.1 | 0.6 | i | -6.4
O=C(Cc1ccc(F)cc1)NC1CCSC1=O (configuration not stated) | -10.8 | 22.3 | -0.5 | 0.1 | 1.2 | -4.4 | i | .
CCOC(=O)c1sc(N)nc1C(C)(C)C | -15.4 | . | 8.1 | 2.5 | 0.5 | 0.0 | i | -5.8
CCOc1ccc(S(=O)(=O)N(CC)CC(=O)NCc2ccncc2)cc1C | -5.2 | 7.9 | 9.6 | 3.9 | 0.9 | -10.6 | i | -2.9
O=c1[nH]c2c(s1)C(c1ccccc1)C1C3CCC(C3)C1S2 (configuration not stated) | . | . | -5.5 | -2.3 | -2.7 | -1.9 | i | -3.3
O=C(NCc1ccccc1F)C1CCN(C(=O)c2sccc2-n2cccc2)CC1 | . | -10.3 | 14.6 | 2.9 | -0.3 | 0.5 | i | .
Cc1cc(=O)oc2cc(OCC(=O)NCc3ccco3)ccc12 | -3.5 | 9.9 | 12.7 | 1.2 | -4.8 | 3.6 | i | -14.2
CCOC(=O)CSc1nc2sc3c(c2c(=O)n1C1CCCCC1)CCN(C)C3 | -12.1 | 11.4 | -2.4 | -2.5 | 5.5 | 4.4 | i | 12.4
C=CCNC(=O)c1cnc2n(c1=O)CCS2 | -6.6 | 4.5 | 8.6 | 4.5 | 1.9 | 2.4 | i | 0.6
COc1ccc(-c2cnc3c(NC(C)=O)cc(-c4cc(F)ccc4OC)cn23)cc1OC | . | 5.7 | . | -9.2 | -2.8 | . | . | 2.0
COc1cc(OC)c(-c2cc(C(=O)O)ccc2OC)c(OC)c1 | -12.9 | 5.3 | -0.5 | 2.2 | 6.4 | 10.1 | i | -9.5
O=C(O)CN1C(=O)/C(=C/c2ccc(N3CCCCC3)o2)SC1=S | -1.6 | 10.8 | 2.8 | 30.9 | 61.7 | 9.6 | i | .
CCOc1ccc(CNC(=O)c2cc3oc4ccccc4c3n2C)cc1 | 37.5 | -81.7 | 3.5 | -2.8 | 1.6 | -8.4 | i | -17.1
CC1CCC/C(=N\Nc2ccc(Cl)c(C(=O)O)c2)C1 (configuration not stated) | -5.5 | -39.0 | -2.9 | 0.1 | 5.5 | 12.6 | i | -22.3
COc1ccc(N2CC(C(=O)N3CCN(C(=O)c4ccco4)CC3)CC2=O)cc1 (configuration not stated) | . | -9.6 | 0.4 | -2.8 | -0.1 | -1.8 | i | -8.1
Cc1cc(OC(=O)c2ccccc2Cl)c([N+](=O)[O-])c(=O)[nH]1 | -10.0 | -5.2 | 8.2 | 2.6 | 6.3 | -13.3 | i | -4.4
More records follow:
SMILES | CSC inhib | Env fusion inh | PABP polyA inh | MT1-MMP act inh | MT1-MMP act inh RFP | eIF4H FP inh | Rce1 inhib | UUG fidelity
COC(=O)[C@H](CC(C)C)NC(=O)CC[C@H]1O[C@@H](n2cc(C)c(=O)[nH]c2=O)C[C@@H]1O | . | 4.8 | . | 2.9 | 1.2 | . | . | 6.4
O=C(CCN1C(=O)/C(=C/c2ccc(F)cc2)SC1=S)NNC(=O)c1cccnc1 | -25.9 | -31.7 | 6.2 | . | . | 12.7 | i | -17.0
O=C(c1cccc(F)c1)N1CCc2ccccc2C1 | -2.4 | -4.9 | -9.8 | -0.1 | 3.8 | -0.2 | i | -14.2
Cc1ccc(NCc2ccc(O)c3ncccc23)cc1C | -6.2 | 18.3 | 1.4 | -11.9 | -14.1 | 7.1 | i | -20.7
